Env fusion inh: HIV envelope-mediated fusion inhibition; HeLa-JRFL Env/CEM21 cell fusion, luciferase; inhibition, % at 12.3 µM; actives 1.1% (n = 360,000);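 active = mean replicate inhibition score of at least 50 and every replicate individually at or above 50; inconclusive = only one of the two criteria met; inactive = mean below 50 and not all replicates reaching 50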;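 note: 0% = plate neutral controls and 100% = maraviroc near 300 nM; one replicate is shown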
eIF4H FP inh: inhibitors of RNA binding by human eIF4H | inhibition, % at 35 µM | eIF4H fluorescence polarization binding assay | actives 0.94% (n = 290,000);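 active = 50% or more with normal probe brightness, or confirmed in later tests; inconclusive = above 50% with abnormal brightness, or retests that disagree; inactive = below 50% or failed in later tests; about a fifth of its hits are not listed in these tables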;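 note: calls also rest on retests at 20 µM and on dose response follow-up; 0% = protein and probe with vehicle and 100% = probe without protein; strong numbers were not always called active; many hits fall short of the cut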
CSC inhib: blocks cancer stem cells | cancer stem cell-like cells viability, luminescence | AID 2717 | actives 1.1% (n = 300,000) | inhibition, % at 7.5 µM;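 active = mean at 75% or more and at least half the replicates too; inconclusive = mean and replicates disagree; tested in HMLE shEcad cells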;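 note: 0% = median of negative and 100% = median of positive control wells; the first replicate is given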
Rce1 inhib: yeast Ras-converting enzyme inhibition; yeast membranes, quenched prenylated peptide cleavage fluorescence; calls only; actives 0.27% (n = 290,000);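 active = fall in fluorescence gain of 50% or more versus controls, with final raw signal at or below 3038400; inconclusive = same 50% fall but final raw signal above 3038400; inactive = fall in fluorescence gain under 50%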;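 note: plate controls were neutral control wells for no effect and wells lacking membranes for full effect; tested at 10 µM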
Target sequence (Q03530 whole entry, looked up): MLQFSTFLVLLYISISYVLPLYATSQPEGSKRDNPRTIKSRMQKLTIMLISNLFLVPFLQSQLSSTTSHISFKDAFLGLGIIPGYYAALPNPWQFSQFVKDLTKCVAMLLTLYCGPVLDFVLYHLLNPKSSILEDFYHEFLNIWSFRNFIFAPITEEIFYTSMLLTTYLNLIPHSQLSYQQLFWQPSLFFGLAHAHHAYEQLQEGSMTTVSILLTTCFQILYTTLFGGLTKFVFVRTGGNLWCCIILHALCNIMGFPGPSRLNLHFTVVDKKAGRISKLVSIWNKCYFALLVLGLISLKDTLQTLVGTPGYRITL
UUG fidelity: modulators of start codon recognition fidelity in yeast. activity score, % at 18.7 µM. S. cerevisiae UUG-firefly luciferase reporter, luminescence/redox ratio. actives 0.13% (n = 350,000);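 active = replicate mean at a twofold rise or more, about +100% in these data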;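 note: firefly luciferase made from a UUG start codon reports start codon fidelity; reporter light over untreated wells divided by growth signal over untreated wells; some hits fall short of that in this replicate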
MT1-MMP act inh: inhibitors of human MT1-MMP activation | GFP/RFP ratio change, % at 20 µM | AID 651647 | actives 0.061% (n = 360,000) | HT1080 RFP-PRO-GFP cells, GFP/RFP ratio fluorescence, overnight; percent of plate control window, DMSO zero | P50281;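 active = GFP/RFP ratio change of at least 30% with cell ATP level not reduced by more than half and red fluorescence within 50% of control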; note: strong numbers were not always called active
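Assay system: HT1080 cells carrying an RFP-PRO-GFP reporter | Dosing: Single dose of 20 µM compound, 1% DMSO final | Incubation: Cells overnight before dosing, compound overnight, 37 °C, 5% CO2 | Evaluation: GFP/RFP fluorescence ratio | Control set: DMSO and RFP-L50D-GFP cell wells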
PABP FP inh: PABP-poly(A) binding inhibition; inhibition, % at 35 µM; P11940; actives 1% (n = 290,000); AID 2014; PABP-poly(A) RNA binding, fluorescence polarization;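 active = 50% or more with normal probe brightness, or confirmed in later tests; inconclusive = above 50% with abnormal brightness, or retests that disagree; inactive = below 50% or failed in later tests; about a fifth of its hits are not listed in these tables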;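 note: calls also rest on retests at 20 µM and on dose response follow-up; controls were probe without protein and protein plus probe with vehicle; some compounds called inactive have numbers as strong as hits; many hits fall short of the cut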
MT1-MMP act inh RFP: recorded beside MT1-MMP act inh, whose call it bears; RFP signal change, %; measured here: RFP expression control read;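 0 = vehicle wells; hits needed this value within 50% of zero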
Numbers without * were called inactive; i = inactive; ? = inconclusive; . = no result given.

SMILES | Env fusion inh | eIF4H FP inh | CSC inhib | Rce1 inhib | UUG fidelity | MT1-MMP act inh | MT1-MMP act inh RFP | PABP FP inh
O=S(=O)(c1ccc(Br)cc1)c1nc(-c2ccccc2)oc1NCCN1CCOCC1 | 13 | 7 | -7 | . | -26 | 1 | -4 | 0
COC(=O)c1c(C)oc(C)c1S(=O)(=O)NCc1ccc(Cl)cc1 | 1 | 6 | 0 | i | . | -2 | -4 | -6
Cc1cc(C)n2nc(S(=O)(=O)N(C)Cc3ccccc3)nc2n1 | 3 | -6 | -1 | i | -11 | 2 | -3 | -3
CSc1ccc(S(=O)(=O)NC2CCCCC2)cc1 | -79 | 4 | -15 | i | 1 | -4 | 2 | -7
COc1ccc(N2C(=O)c3ccccc3NC23C(=O)N(C)c2ccccc23)cc1 (centres undefined) | -16 | -9 | -1 | i | -24 | 2 | -1 | -11
Cc1ccc(S(=O)(=O)N2CCCC2C(=O)OCc2nc3sc(C)c(C)c3c(=O)[nH]2)cc1 (centres undefined) | -7 | -4 | . | i | 8 | 3 | 1 | 5
N#Cc1cc(NC(=O)c2ccc(F)cc2)c(=O)n2c1[nH]c1ccccc12 | . | 24 | -6 | i | . | . | . | 6
CCC(C)(C(=O)NC1CCCC1)N(Cc1ccco1)C(=O)Cc1cccs1 (centres undefined) | -93 | 0 | -4 | i | -16 | -3 | -2 | 5
Cc1ccc(/C=C/C(=O)C2C(=O)c3ccccc3C2=O)cc1 | -117 | -7 | 57 | i | . | 5 | 3 | -1
COc1ccc(CCNCc2ccc(OCc3ccc(Cl)nc3)c(OC)c2)cc1OC | . | -4 | 7 | i | 8 | -3 | 0 | -1
O=C(CCc1ccccc1)N1CCN(Cc2ccc(F)cc2Cl)CC1 | 9 | -8 | 47 | i | 8 | 8 | 5 | -3
COc1cccc(NC(=O)CN(C)C(=O)Cn2cnc3ccccc3c2=O)c1 | . | . | -15 | i | -33 | 2 | 5 | .
O=C(CC1CCCCC1)NCC1CCCO1 (centres undefined) | -48 | -6 | -6 | i | -16 | 2 | 6 | -10
O=C(NN1C(=O)c2ccc(-c3ccc4c(c3)C(=O)N(NC(=O)c3cccnc3)C4=O)cc2C1=O)c1cccnc1 | 5 | 42 | -4 | i | -19 | -2 | 3 | 15
CC(C)=CCN1CCN(Cc2cccn2-c2ncccn2)CC1CCO (centres undefined) | 2 | 12 | -10 | i | . | -2 | 1 | 4
COc1ccc2c(CN(C)c3ccccc3)cc(=O)oc2c1 | . | 4 | . | i | . | -2 | -5 | 29
COc1ccc(Nc2nc(C)cc(C)n2)cc1Cl | -64 | 9 | -12 | i | -9 | 6 | -2 | 8
O=C(CC1CC2CCC1C2)N1CCN(S(=O)(=O)c2ccc(F)cc2)CC1 (centres undefined) | 27 | . | . | . | -12 | 1 | 3 | .
O=C(O)CC(=O)Nc1ccccc1C(=O)O | . | -10 | -29 | i | -18 | 4 | 9 | 8
O=C(CCCC1=NS(=O)(=O)c2ccccc2N1)OCc1ccc(Cl)cc1 | 0 | . | -20 | i | -4 | -1 | -10 | .
CCN(CC)CCC(c1ccc2c(c1)OCO2)c1c(OC)cc(OC)c2c(-c3ccccc3)cc(=O)oc12 (centres undefined) | . | -7 | 3 | i | -10 | -1 | -1 | -3
N#CCCN(C(=O)COC(=O)CNC(=O)c1ccc(-c2ccccc2)cc1)c1ccc(F)cc1 | 0 | . | -11 | i | -1 | -1 | 3 | .
CN(C)c1ccc(NC(=O)CCn2c(=S)oc3ccccc32)cc1 | 13 | 4 | 1 | i | . | 4 | 0 | -5
CN1CCN(NC(=S)Nc2ccc(Oc3ccccc3)cc2)CC1 | 8 | -13 | -2 | i | . | -1 | -9 | -6
N#C/C(=C/C1=C(N2CCOCC2)C(=C/c2ccc(Cl)cc2)/CC1)C(=O)Nc1ccccc1F | -2 | . | . | . | 0 | 8 | 55 | .
C/C(=N\NC(=O)c1c(Cl)c(C)nn1C)c1ccc(NC(=O)C2CCC2)cc1 | 4 | -15 | 33 | i | 0 | 0 | -8 | 6
CCOC(=O)C1=C(C)c2ccccc2OC1(C(=O)OCC)C(C)C (centres undefined) | -3 | . | . | . | -2 | 0 | -1 | .
CC(=O)O[C@H]1CC[C@H]2[C@@H]3CCc4cc(O)ccc4[C@H]3CC[C@]12C | . | -11 | 13 | i | -13 | 1 | -7 | 6
O=C(/C=C/c1ccco1)NCC(=O)N/N=C/c1ccc(Cl)cc1 | 5 | -3 | 0 | i | . | 1 | 2 | -19
CNC(=S)NNC(=O)c1sc(-c2cc(C)on2)nc1C | -10 | -3 | -5 | i | -13 | 4 | 4 | 7
CCCn1nc(NC(=O)c2ccccn2)c2cc3cc(C)ccc3nc21 | -84 | 4 | . | i | -17 | 2 | -4 | 1
COCCSc1ccccc1C(=O)Nc1cc(C)on1 | . | -1 | -9 | i | -6 | -3 | 1 | 5
CC(=O)Nc1ccc(N(C(=O)Cc2c[nH]c3ccccc23)C(C(=O)NC2CCCCC2)c2ccco2)cc1 (centres undefined) | -12 | 3 | -11 | i | -2 | 0 | 3 | 0
Cc1cc(-c2nnc3sc(C4CCCCC4)nn23)n[nH]1 | -31 | -2 | . | . | . | 0 | 2 | -3
O=S1(=O)CCC(N=Cc2cc(Br)ccc2O)C1 (centres undefined) | . | 8 | 16 | i | -10 | 6 | 3 | -1
COc1ccc(C(CNc2ccc(C(F)(F)F)cn2)N(C)C)cc1OC (centres undefined) | 4 | -10 | -8 | . | -19 | 2 | 7 | 4
Cc1ccc(S(=O)(=O)NNC(=S)NC(=O)c2ccc([N+](=O)[O-])cc2)cc1 | 24 | -9 | -11 | i | . | 3 | -2 | 8
COc1ccc(-c2csc(Nc3ccccc3)[n+]2CC(O)c2ccc([N+](=O)[O-])cc2)cc1 (centres undefined) | 27 | -1 | 30 | . | 2 | 0 | -10 | -3
COc1ccc(NS(=O)(=O)c2ccc3c(c2)oc(=O)n3C)cc1Cl | 20 | -6 | 11 | i | -7 | -9 | -8 | 9
O=C(CSc1nnc(CN2CCCCCC2=O)n1-c1ccccn1)NCC(F)(F)F | -10 | -3 | . | i | -8 | 1 | 5 | -10
CCN1CCN(CC(=O)Nc2nc3ccc(C)cc3s2)CC1 | -4 | -16 | 23 | i | -23 | -1 | -1 | 0
O=C(O)c1c[nH]c2c([N+](=O)[O-])cccc2c1=O | 26 | . | . | . | -3 | -1 | -5 | .
CCN(CC)CCNC(=O)c1cc([N+](=O)[O-])c(N(C)C)cc1OC | 17 | 7 | -9 | i | -14 | -1 | -1 | 24
CC(=O)c1cccc(OCc2cc(C(=O)NCCC3=CCCCC3)no2)c1 | -44 | -4 | 1 | i | 1 | 3 | -5 | 7
Cc1ccc(C(=O)NN2C(=O)/C(=C/c3cccn3C)SC2=S)cc1 | 8 | ? | 10 | i | -8 | -5 | 10 | -5
Cc1ccc2c(C)c(C(=O)N3CCN(Cc4ccccn4)CC3)oc2c1C | 30 | -10 | 1 | i | -25 | -2 | 1 | 4
NC1=NC(=O)C(CC(=O)NCc2ccccc2)S1 (centres undefined) | -14 | 3 | -8 | i | . | 2 | 2 | 6
C/C(=N\NC(=O)c1c[nH]c2ccccc12)c1ccc2c(c1)OCO2 | -8 | 2 | 9 | i | . | -1 | 0 | -2
CN1CCC(N(C)C(=O)c2cccc(S(=O)(=O)N3CCOCC3)c2)CC1 | -7 | . | . | . | -9 | 0 | -1 | .
CC(OC(=O)CCN=C1NS(=O)(=O)c2ccccc21)C(=O)Nc1ccc(F)cc1 (centres undefined) | -3 | . | -6 | i | . | 2 | 0 | .
Cc1ccc(NC(=O)CNc2cccc(C)c2C)c(C)c1 | . | -1 | -14 | i | -12 | 4 | 3 | -2
COc1cc(OC)cc(C(=O)N/N=C/c2ccc(OC)c(COc3ccc(F)cc3)c2)c1 | 15 | 0 | -5 | i | -13 | 21 | 6 | -8
Cc1ccc(NC(=O)CCC(=O)NNC(=S)Nc2ccc(F)cc2)c(C)c1 | 17 | 2 | -5 | i | -22 | 1 | -1 | 4
O=C(O)c1cnn2c1C(=O)N(Cc1cccs1)CC2 | 4 | 14 | -4 | i | . | 0 | 6 | 2
CCCc1nc2c(=O)[nH]c3ccccc3c2o1 | -85 | -4 | -9 | i | . | -2 | -1 | 3
Cc1sc2ncnc(N[C@@H](CCC(=O)O)C(=O)O)c2c1C | . | -4 | . | i | 0 | 0 | 4 | 13
CCOC(=O)N1CCN(C2CCCN(C(=O)c3ccccc3C(F)(F)F)C2)CC1 (centres undefined) | 21 | 0 | . | i | -3 | -3 | 3 | 6
CCOc1ccc(CNC(=O)C2CCCN(c3nnc(C)c4c(C)n(-c5ccccc5)nc34)C2)cc1 (centres undefined) | ? | -12 | 17 | i | -1 | -4 | -6 | -5
Cc1ccc(NC(=O)CSc2nnc(-c3ccco3)o2)c(C)c1 | 8 | 4 | -11 | i | -12 | -3 | -1 | -6
Cc1nnc(NC(=O)CSc2nnc(Cc3cccn3C)n2-c2ccccc2)s1 | -4 | 3 | -19 | i | -2 | -1 | 4 | -1

(next part)
SMILES | Env fusion inh | eIF4H FP inh | CSC inhib | Rce1 inhib | UUG fidelity | MT1-MMP act inh | MT1-MMP act inh RFP | PABP FP inh
CCOC(=O)c1c(NC(=O)c2cc(-c3cccc(O)c3)on2)sc(C(C)=O)c1C | 4 | 7 | -2 | i | -33 | -1 | 3 | 9
Cc1ccc(C(=O)Nc2cccnc2)cc1S(=O)(=O)N1CCOCC1 | -8 | 10 | -7 | i | -11 | 2 | 11 | 2
Cc1cc(NC2CCCC2)n2ncc(-c3ccccc3)c2n1 | -200 | -10 | 29 | i | -75 | 3 | -2 | -9
COc1ccc(N2CCN(C(=O)Cc3ncc(C(F)(F)F)cc3Cl)CC2)cc1 | -11 | 12 | . | i | -9 | -10 | -3 | -7
COc1ccc(C(=O)COc2ccccc2C#N)cc1 | -28 | -4 | 20 | i | . | -3 | 0 | 2
Cc1ccc(-c2nc(SC(C)C(=O)NC3CC3)n[nH]2)cc1 (centres undefined) | -7 | . | . | . | -35 | 0 | 3 | .
COc1ccc(NC(=O)c2cc(-c3ccccn3)nc3ccccc23)c(OC)c1 | 6 | . | -16 | . | -11 | 2 | -2 | .
O=C(Nc1ccc(N2CCCCC2)cc1)C1CCCN1S(=O)(=O)c1ccc(F)cc1 (centres undefined) | -18 | . | -8 | . | -4 | 1 | -3 | .
COCCN1C(=S)NC(c2cccc(C(F)(F)F)c2)C(C(=O)N2CCOCC2)=C1C (centres undefined) | 2 | 1 | -10 | i | -19 | 2 | 1 | -3
Cc1ccc(N2CC(C(=O)OCC(=O)C(C)(C)C)CC2=O)cc1 (centres undefined) | -92 | 2 | -8 | i | -2 | 3 | 9 | -1
Cc1cccc(NC(=O)C2CCCN2C(=O)NC2CCCCC2)c1 (centres undefined) | 17 | 6 | 0 | i | . | 0 | 0 | -3
CCOC(=O)c1nn(-c2ccccc2F)c2nc(Nc3ccccc3)cc(=O)n12 | -32 | 4 | -5 | i | . | 2 | 3 | 1

3 of the entries above in order of their number in UUG fidelity, highest first:
mol	UUG fidelity
O=C(Nc1ccc(N2CCCCC2)cc1)C1CCCN1S(=O)(=O)c1ccc(F)cc1 (centres undefined)	-4
CCOC(=O)c1c(NC(=O)c2cc(-c3cccc(O)c3)on2)sc(C(C)=O)c1C	-33
Cc1cc(NC2CCCC2)n2ncc(-c3ccccc3)c2n1	-75

Bioassay records: PubChem, several laboratories

An excerpt (hit frequency here may not be typical).
